HIV Env fusion = inhibitors of HIV Env-mediated cell fusion | HeLa-JRFL Env/CEM21 cell fusion, luciferase | 360,000 compounds, 1.1% hits | inhibition, % at 12.3 µM;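 active = mean replicate inhibition score of at least 50 and every replicate individually at or above 50; inconclusive = only one of the two criteria met; inactive = mean below 50 and not all replicates reaching 50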;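 also: 0% = plate neutral controls and 100% = maraviroc near 300 nM; one replicate is shown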
* marks the source's active call; other numbers are inactive results; u = inconclusive; [ ] = another dose, or the depositor's remark.

SMILES | HIV Env fusion
COc1ccc(-c2cn(CC[C@@H]3CC[C@@H](NC(=O)CCN4CCCCC4)[C@@H](CO)O3)nn2)cc1 | 4[16.7 µM]
COc1ccccc1CN1[C@@H]2c3ccc(C4=CCCC4)c(=O)n3C[C@H]1[C@H](CO)[C@H]2C(=O)N(C)C | 1[16.7 µM]
Nc1nc2c(C(=O)N3CCCC3)nnn2c2ccccc12 | -45
Cc1ccc(S(=O)(=O)Nc2ccc3c(c2)C(=O)N([C@@H](C)CO)C[C@@H](C)[C@H](CN(C)Cc2ccccc2)O3)cc1 | 18[16.7 µM]
COc1cccc2[nH]c(-c3ccccn3)nc12 | -21
CC(C)NC(=O)Nc1ccc2c(c1)CC(=O)N([C@@H](C)CO)C[C@H](C)[C@@H](CN(C)Cc1ccc3c(c1)OCO3)O2 | -7[16.7 µM]
C[C@@H]1CN([C@H](C)CO)C(=O)c2cc(N(C)C)ccc2O[C@@H](C)CCCCO[C@H]1CN(C)C(=O)Nc1ccc2c(c1)OCO2 | 4[16.7 µM]
C[C@@H]1CN([C@H](C)CO)C(=O)c2ccccc2-c2ccccc2CO[C@H]1CN(C)C(=O)Cc1ccccc1 | 17[16.7 µM]
Cc1ccc(S(=O)(=O)Nc2ccc3c(c2)C(=O)N(C)[C@@H]2CC[C@@H](CC(=O)NCCc4ccncc4)O[C@@H]2CO3)cc1 | 7[16.7 µM]
C[C@@H]1CN([C@@H](C)CO)C(=O)c2cc(NC(=O)CCC(F)(F)F)ccc2O[C@@H](C)CCCCO[C@H]1CN(C)Cc1ccccc1 | -28[16.7 µM]
O=C(C[C@H]1CC[C@@H]2[C@H](COC[C@@H](O)CN2Cc2cccc(Cl)c2)O1)NCC1CCCCC1 | -2[16.7 µM]
Cc1nn(C)cc1NC(=O)C[C@@H]1CC[C@H]2[C@H](COc3ccc(NC(=O)C4CCOCC4)cc3C(=O)N2C)O1 | 11[16.7 µM]
O=C(CN1CCOCC1)NCC[C@@H]1CC[C@H](NS(=O)(=O)c2ccc(F)cc2)[C@H](CO)O1 | 12[16.7 µM]
COC(=O)[C@]12C[C@H](CC(=O)NCCCN3CCCC3=O)C(=O)N(Cc3ccccc3)C1=C[C@H](C1CCCC1)O[C@@H]2C | -19
CO[C@H]1CN(C)C(=O)c2ccc(NS(=O)(=O)c3ccccc3F)cc2OC[C@H](C)NC[C@H]1C | -12[16.7 µM]
C[C@@H]1CN([C@@H](C)CO)C(=O)c2ccccc2-c2ccccc2CO[C@H]1CN(C)C(=O)CCN(C)C | -5[16.7 µM]
O=C(C[C@H]1CC[C@H]2NC[C@@H](O)COC[C@@H]2O1)NCCN1CCCCC1 | 3[16.7 µM]
C[C@H]1CN([C@@H](C)CO)S(=O)(=O)c2ccc(C#CC(C)(C)O)cc2O[C@@H]1CN(C)C(=O)C1CC1 | -28[16.7 µM]
CSC12CCCN(CCC(C(C)(C)C)C1)C2=O (stereo unspecified) | -34
O=C(N[C@H](Cc1ccccc1)C(=O)N1CCN(C(=O)N2CCCCC2)CC1)[C@H]1O[C@@H](n2ccc(=O)[nH]c2=O)[C@H](O)[C@@H]1O | -15
C[C@@H]1CN([C@H](C)CO)C(=O)Cc2cc(NC(=O)Cc3ccccc3)ccc2O[C@H]1CN(C)Cc1ccc(C(F)(F)F)cc1 | 0[16.7 µM]
O=C(C[C@@H]1CC[C@H]2NC[C@@H](O)COC[C@@H]2O1)NCc1ccc2c(c1)OCO2 | -4[16.7 µM]
O=C([C@H]1[C@H](CO)[C@H]2Cn3c(ccc(C4=CCCC4)c3=O)[C@H]2N1Cc1nccs1)N1CCOCC1 | 13[16.7 µM]
COc1cccc(S(=O)(=O)Nc2ccc3c(c2)[C@@H]2C[C@H](CC(=O)NCc4ccccc4F)O[C@H](CO)[C@@H]2O3)c1 | 2[16.7 µM]
CN(C)CC(=O)N1[C@H](CO)[C@@H](c2ccccc2-c2ccc(C(=O)N(C)C)cc2)[C@@H]1C#N | 0[16.7 µM]

Exported comma-delimited: part of the list above
SMILES,HIV Env fusion
CSC12CCCN(CCC(C(C)(C)C)C1)C2=O (stereo unspecified),-34
C[C@H]1CN([C@@H](C)CO)S(=O)(=O)c2ccc(C#CC(C)(C)O)cc2O[C@@H]1CN(C)C(=O)C1CC1,-28[16.7 µM]

The listing continues:
SMILES | HIV Env fusion
COc1ccc(NC(=O)Nc2ccc3c(c2)[C@H]2C[C@H](CC(=O)NC4CCCCC4)O[C@H](CO)[C@H]2O3)cc1 | 9[16.7 µM]
CCS(=O)(=O)Nc1ccc2c(c1)C(=O)N(C)C[C@@H](OC)[C@@H](C)CN(Cc1ccccn1)[C@H](C)CO2 | 0[16.7 µM]
C[C@@H]1CCCCO[C@@H](CN(C)S(=O)(=O)c2cccs2)[C@@H](C)CN([C@@H](C)CO)C(=O)c2cc(NC(=O)Nc3cccc4ccccc34)ccc2O1 | 3[16.7 µM]
Cc1ccc(-c2cc(NC(=O)Cc3c[nH]c4ccccc34)ccc2N(C)c2cccnc2)cc1 | -7
O=C(C[C@@H]1C=C[C@H](NC(=O)c2ccncc2)[C@@H](CO)O1)NCC1CC1 | -7[16.7 µM]
C[C@@H]1CN([C@H](C)CO)C(=O)c2cc(C#CC(C)(C)O)cnc2O[C@H]1CN(C)Cc1cccc(F)c1 | -5[16.7 µM]
COc1ccccc1NC(=O)N1C[C@@H](O)COC[C@@H]2O[C@H](CC(=O)NCc3ccccc3)CC[C@H]21 | -3[16.7 µM]
COc1ccc(CN2C[C@@H](O)COC[C@@H]3O[C@H](CC(=O)N(C)C)CC[C@H]32)cc1 | 5[16.7 µM]
CNC[C@H]1OCCCC[C@H](C)Oc2ccc(NC(=O)Nc3cccc4ccccc34)cc2C(=O)N([C@H](C)CO)C[C@@H]1C | -7[16.7 µM]
C[C@@H]1CN([C@@H](C)CO)C(=O)c2cc(NS(=O)(=O)c3cccs3)ccc2O[C@H]1CN(C)S(=O)(=O)c1cccs1 | -12[16.7 µM]
COc1cccc(-c2ccc3n(c2=O)C[C@@H]2[C@@H](CO)[C@H](C(=O)NCC4CC4)[C@H]3N2S(C)(=O)=O)c1 | 18[16.7 µM]
CCOC(=O)CN1C(=O)[C@]2(OCCC=C[C@H]2C)c2c(Br)cccc21 | -10
CCCNC(=O)N1CCC2(CC1)CN(Cc1ccccc1)[C@H](CO)c1[nH]c3cc(OC)ccc3c12 | -317[16.7 µM]
CN(C)C(=O)C[C@@H]1CC[C@@H]2[C@H](COc3ccc(NC(=O)c4ccc(F)cc4)cc3C(=O)N2C)O1 | -9[16.7 µM]
CO[C@H]1CN(C)C(=O)c2cc(NS(C)(=O)=O)ccc2OC[C@@H](C)N(C(=O)C2CCOCC2)C[C@@H]1C | -13[16.7 µM]
CO[C@@H]1CN(C)C(=O)c2ccc(NC(=O)Nc3c(C)noc3C)cc2OC[C@@H](C)NC[C@@H]1C | -22[16.7 µM]
CCCNC(=O)C[C@@H]1CC[C@H]2[C@@H](COC[C@@H](O)CN2C(=O)Nc2ccc(Cl)c(Cl)c2)O1 | 1[16.7 µM]
CO[C@H]1CN(C)C(=O)c2cc(NC(=O)C3CC3)ccc2OC[C@H](C)N(C(=O)CN2CCOCC2)C[C@@H]1C | 15[16.7 µM]
COCc1cc(N2CCN(C(=O)OC(C)(C)C)C[C@H]2C)ccc1N1CCN(Cc2ccccc2)[C@H](C)C1 | 26
C[C@@H]1CN([C@H](C)CO)C(=O)c2cc(NC(=O)Nc3ccccc3)ccc2O[C@H]1CN(C)C | 4[16.7 µM]
Cc1ccc2c(c1)-n1c(nc3ccccc3c1=O)C(Cc1ccccc1)NC2=O (stereo unspecified) | 12
CC(c1ccc(Cl)cc1)N(CCN(C)C)c1ccccn1 (stereo unspecified) | -188
CC(C)(C)c1ccc(S(=O)(=O)N2CCN(C(=O)C(=O)c3cccc(C(F)(F)F)c3)CC2)cc1 | 7
O=C(C[C@@H]1C[C@@H]2c3cc(NC(=O)Nc4ccccc4F)ccc3O[C@@H]2[C@H](CO)O1)NCc1ccc2c(c1)OCO2 | 9[16.7 µM]
C[C@@H]1CN([C@H](C)CO)C(=O)c2cc(NC(=O)c3ccncc3)ccc2O[C@@H](C)CCCCO[C@H]1CN(C)Cc1ccncc1 | 12[16.7 µM]
SMILES | HIV Env fusion
C[C@H]1CN([C@@H](C)CO)C(=O)CCCn2nncc2CO[C@H]1CN(C)Cc1ccc(Cl)c(Cl)c1 | 21[16.7 µM]
COc1ccc(C[C@@H]2CCc3cnnn3COC[C@@H](c3ccccc3)NC2=O)cc1 | 10[16.7 µM]
COC(=O)Cc1nnn2c1[C@H](C)[C@H](c1ccccc1Br)OCC2 | u
O=C(C[C@@H]1C[C@@H]2c3cc(NC(=O)Nc4ccccc4)ccc3O[C@@H]2[C@@H](CO)O1)NCCN1CCCCC1 | -13[16.7 µM]
CO[C@@H]1CN(C)C(=O)c2ccc(NS(C)(=O)=O)cc2OC[C@@H](C)N(CC2CCCCC2)C[C@@H]1C | -2[16.7 µM]
C[C@H]1CN([C@@H](C)CO)C(=O)c2c(c3ccccc3n2C)-c2ccccc2CO[C@H]1CN(C)C(=O)[C@H]1CCCN1C | -31[16.7 µM]
CC(C)NC(=O)N(C)C[C@H]1Oc2ccc(N(C)C)cc2CC(=O)N([C@H](C)CO)C[C@H]1C | -9[16.7 µM]
C[C@@H]1CCCCO[C@@H](CN(C)S(C)(=O)=O)[C@H](C)CN([C@H](C)CO)C(=O)c2cc(NC(=O)CCC(F)(F)F)ccc2O1 | -4[16.7 µM]
CO[C@@H]1CC[C@H]2CCOc3ccc(C#N)cc3C(=O)N(C)C[C@@H](C)C(=O)N(C)C[C@@H]1O2 | 9[16.7 µM]
CN1C(=O)c2cc(NC(=O)Nc3cccc(C#N)c3)ccc2OC[C@H]2O[C@@H](CC(=O)Nc3ccc4c(c3)CCC4)CC[C@@H]21 | -2[16.7 µM]
CCNC(=O)C[C@@H]1CC[C@H]2[C@@H](COC[C@H](O)CN2C(=O)Nc2ccc(C(F)(F)F)cc2)O1 | 6[16.7 µM]
COc1ccc(CN(C)C[C@@H]2OCc3cn(nn3)CCCC(=O)N([C@@H](C)CO)C[C@@H]2C)cc1 | -18[16.7 µM]
COc1ccc(-c2ccccc2C2Cc3nnccc3CN2)cc1 (stereo unspecified) | 20
COc1ccc(C2=CN(Cc3ccccc3)C(c3ccc(OC)cc3)CC2=O)cc1 (stereo unspecified) | 3
C[C@@H]1CN([C@H](C)CO)S(=O)(=O)c2ccc(C3=CCCCC3)cc2O[C@@H]1CN(C)C | -2[16.7 µM]
Nc1[nH]c(C(=O)c2ccccc2)c(-c2ccc(Cl)cc2)c1C(=O)c1c[nH]c2ccc(Br)cc12 | 43
Cc1noc(C)c1S(=O)(=O)Nc1ccc2c(c1)C(=O)N([C@@H](C)CO)C[C@@H](C)[C@@H](CN(C)C(=O)Nc1ccc(F)cc1)O2 | -18[16.7 µM]
CO[C@H](CN(C)S(=O)(=O)c1ccc(Cl)cc1)[C@H](C)CN([C@H](C)CO)S(=O)(=O)c1cccc(Cl)c1 | 56*[16.7 µM]
CC(C)NC(=O)Nc1ccc2c(c1)CC(=O)N([C@@H](C)CO)C[C@H](C)[C@H](CN(C)C(=O)NC1CCCCC1)O2 | 8[16.7 µM]
COC(=O)[C@]12C[C@H](CC(=O)N3CCCC3)C(=O)N(Cc3ccccc3)C1=C[C@H](C(C)(C)C)O[C@@H]2C | -11
CO[C@H]1CN(C)C(=O)c2cc(NS(=O)(=O)c3cn(C)cn3)ccc2OC[C@H](C)NC[C@H]1C | 7[16.7 µM]
CO[C@@H](CN(C)S(=O)(=O)c1cccc(Cl)c1)[C@@H](C)CN([C@H](C)CO)S(=O)(=O)c1ccc(Cl)cc1 | u
Cc1ccc(CN(C)C[C@@H]2OCc3cn(nn3)CCCC(=O)N([C@@H](C)CO)C[C@H]2C)cc1 | -2[16.7 µM]
C[C@@H]1CCCCO[C@@H](CN(C)C(=O)Cc2ccccc2)[C@H](C)CN([C@@H](C)CO)C(=O)c2cc(NS(C)(=O)=O)ccc2O1 | -20[16.7 µM]
CO[C@@H]1CC[C@@H]2CCN(C)C(=O)C[C@@H](c3ccccc3)CN(C)C(=O)c3cc(C#N)ccc3OC[C@H]1O2 | 8[16.7 µM]
O=C(C[C@H]1CC[C@@H]2[C@H](COC[C@H](O)CN2Cc2cc(F)ccc2F)O1)N[C@@H]1CCN(Cc2ccccc2)C1 | -158[16.7 µM]
CNC[C@H]1Oc2cc(-c3ccncc3)ccc2S(=O)(=O)N([C@H](C)CO)C[C@@H]1C | -6[16.7 µM]

An excerpt of these results, as a markdown table.
| canonical_smiles | HIV Env fusion |
| --- | --- |
| C[C@H]1CN([C@@H](C)CO)C(=O)CCCn2nncc2CO[C@H]1CN(C)Cc1ccc(Cl)c(Cl)c1 | 21[16.7 µM] |
| COc1ccc(C[C@@H]2CCc3cnnn3COC[C@@H](c3ccccc3)NC2=O)cc1 | 10[16.7 µM] |
| COC(=O)Cc1nnn2c1[C@H](C)[C@H](c1ccccc1Br)OCC2 | u |
| O=C(C[C@@H]1C[C@@H]2c3cc(NC(=O)Nc4ccccc4)ccc3O[C@@H]2[C@@H](CO)O1)NCCN1CCCCC1 | -13[16.7 µM] |
| CO[C@@H]1CN(C)C(=O)c2ccc(NS(C)(=O)=O)cc2OC[C@@H](C)N(CC2CCCCC2)C[C@@H]1C | -2[16.7 µM] |
| C[C@H]1CN([C@@H](C)CO)C(=O)c2c(c3ccccc3n2C)-c2ccccc2CO[C@H]1CN(C)C(=O)[C@H]1CCCN1C | -31[16.7 µM] |
| CC(C)NC(=O)N(C)C[C@H]1Oc2ccc(N(C)C)cc2CC(=O)N([C@H](C)CO)C[C@H]1C | -9[16.7 µM] |
| C[C@@H]1CCCCO[C@@H](CN(C)S(C)(=O)=O)[C@H](C)CN([C@H](C)CO)C(=O)c2cc(NC(=O)CCC(F)(F)F)ccc2O1 | -4[16.7 µM] |
| CO[C@@H]1CC[C@H]2CCOc3ccc(C#N)cc3C(=O)N(C)C[C@@H](C)C(=O)N(C)C[C@@H]1O2 | 9[16.7 µM] |
| CN1C(=O)c2cc(NC(=O)Nc3cccc(C#N)c3)ccc2OC[C@H]2O[C@@H](CC(=O)Nc3ccc4c(c3)CCC4)CC[C@@H]21 | -2[16.7 µM] |
| CCNC(=O)C[C@@H]1CC[C@H]2[C@@H](COC[C@H](O)CN2C(=O)Nc2ccc(C(F)(F)F)cc2)O1 | 6[16.7 µM] |

An excerpt; the hit share may differ from the screen's.
